Bioassay records (PubChem)
Calb FLC – C. albicans growth inhibition with fluconazole, primary screen, CaCi-2 strain, Alamar Blue fluorescence. growth inhibition, % (no concentration beside the values). C. albicans CaCi-2 (fluconazole-resistant clinical isolate) + fluconazole, 48 h. hit rate 0.57% among 300,000;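 active = most replicates above 75%; inconclusive = exactly half above 75%; inactive = most below 75%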;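 also: all wells also contain fluconazole at 8 µg/ml as a sub-toxic cotreatment; 0% = median of DMSO wells and 100% = median of geldanamycin control wells; wells of about 8 µL received 7.5 nL stock; the first replicate is given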
RanGTP-Impb inh – inhibitors of RanGTP-importin-beta interaction, primary screen, biochemical, FRET, CFP-Ran, YFP-importin-beta, homogeneous | cell-free CFP-Ran/YFP-importin-beta FRET ratio | inhibition, % (concentration not given with the values) | hit rate 1.1% among 300,000 | AID 2216, 2009;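 active = most replicates above 15%; inconclusive = exactly half above 15%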;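 also: 0% = DMSO wells and 100% = Ran loaded with GDP instead of GTP; wells of about 40 µL received 100 nL stock; the first replicate is given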
Beta apoptosis – inhibitors of cytokine-induced beta cell apoptosis, primary screen, luminescence; INS-1E cytokine-induced death, ATP luminescence, 48 h; percent of positive-control rescue, neutral wells zero; hit rate 0.8% among 300,000; protection from apoptosis, % (concentration not given with the values);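 active = all replicates at 75% or more, or half of them and the mean; inconclusive = half reach 75% but not the mean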;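 also: 0% = cytokine-treated negative control wells and 100% = positive control rescue; higher means more ATP so stronger rescue from cytokine killing; wells of about 40 µL received 100 nL stock; the first replicate is given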
T cruzi repl – inhibitors of intracellular T. cruzi growth, primary screen, luminescence, NIH3T3 host cells | T. cruzi beta-gal in NIH3T3, 90 h | inhibition, % (no concentration beside the values) | hit rate 1.4% among 300,000 | AID 1885, 2009;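 active = mean inhibition across valid replicates above about 55%, limit read from the data; inconclusive = mean below that limit but half or more replicates reach it; inactive = mean below it, under half of replicates reach it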;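 also: signal also drops with host cell toxicity which is not excluded here; 0% = plate median of DMSO wells and 100% = zero luminescence signal; higher percent means less beta-gal luminescence so fewer parasites; stock transfer was 50 nL into about 50 µL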
MLL AF4-AF9 inh – inhibitors of AF4 peptide binding to AF9, primary screen, biochemical, AlphaScreen, biotin-AF4 peptide, FLAG-AF9, single point; Protein AF-9 (Homo sapiens), P42568; inhibition, % at 10 µM; hit rate 0.47% among 350,000;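 active = every replicate reaching a set inhibition limit, whatever the replicate mean, cut at about 25% in these data; inconclusive = mean inhibition reaches that limit but some replicates miss it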;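 also: 0% = plate neutral control median and 100% = total signal loss; the record names both 10 and 1 µM as test concentration; the first replicate is given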
Target sequence (P42568 whole entry, looked up): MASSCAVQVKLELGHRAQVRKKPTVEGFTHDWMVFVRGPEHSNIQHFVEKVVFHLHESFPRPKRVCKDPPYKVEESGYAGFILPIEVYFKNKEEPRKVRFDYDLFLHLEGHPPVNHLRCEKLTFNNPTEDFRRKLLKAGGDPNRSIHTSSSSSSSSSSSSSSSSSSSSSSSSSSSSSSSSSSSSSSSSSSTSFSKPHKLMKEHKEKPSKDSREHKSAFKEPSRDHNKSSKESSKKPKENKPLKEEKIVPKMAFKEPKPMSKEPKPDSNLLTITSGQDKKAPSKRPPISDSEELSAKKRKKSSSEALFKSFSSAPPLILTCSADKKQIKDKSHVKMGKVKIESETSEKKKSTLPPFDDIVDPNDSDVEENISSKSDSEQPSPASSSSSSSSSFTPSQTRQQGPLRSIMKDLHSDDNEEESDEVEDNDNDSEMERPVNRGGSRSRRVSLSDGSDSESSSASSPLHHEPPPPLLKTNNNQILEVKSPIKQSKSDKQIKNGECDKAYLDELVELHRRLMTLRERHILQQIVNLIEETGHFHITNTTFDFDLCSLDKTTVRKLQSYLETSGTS
rRNA inh HTS – reduced GFP signal of wild-type E. coli, primary screen, bacterial rRNA inhibitor project, GFP/RFP fluorescence, OD600, single point; E. coli WT GFP vs humanized-ribosome RFP mutants, 24 h; active compounds read low; DMSO median 0, no signal -100; GFP signal change (wild-type ribosome), % (test concentration not listed); hit rate 1.6% among 350,000; AID 720706, 2013;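 active = significant combined selectivity score with lowered wild-type GFP, culture density cut under 30%, mutant RFP and density less affected; inactive = any of these conditions unmet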; also: one replicate is shown; some compounds called inactive have numbers as strong as hits
Bfl-1 A1 inh – caspase 3/7 activation in MEF A1-2A-BIM cells, primary screen, A1 inhibitor project, cell-based, luminescence, HTS | Caspase-Glo 3/7 luminescence, 3 h; percent of clofoctol response, vehicle zero | caspase activation, % (concentration not given with the values) | hit rate 0.066% among 330,000;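 active = over half of replicate activation scores above 10%, or exactly half above 10 with the replicate mean above 10; inconclusive = replicate mean below 10 yet half the replicates above 10; inactive = over half of replicates below 10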;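 also: wells of about 30 µL received 50 nL stock; many hits fall short of the cut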
Vif A3G – inhibitors of Vif binding to APOBEC3G peptide, primary screen, biochemical, TR-FRET, GST-Vif 1-94, biotin-A3G peptide, dose response retest (AID 1117319); Virion infectivity factor (Human immunodeficiency virus type 1 group M subtype B (isolate …; TR-FRET GST-Vif / biotin-A3G peptide binding; higher % means a stronger effect; test concentration not given here; strong numbers were not always called active; inhibition, %; hits with a dose series show IC50 in µM; hit rate 0.57% among 260,000;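 active = above the screen mean plus three standard deviations and confirmed in dose response; inconclusive = results disagree or hit not tested in dose response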;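 also: Vif residues 1-94 fused to GST binding biotinylated APOBEC3G peptide 110-148; 0% = full assay without inhibitor and 100% = GST in place of GST-Vif; retest series ran down from 100 µM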
rRNA inh HTS OD600 – further read-out of rRNA inh HTS, marked with its call; OD600 change, %; measured here: OD600 growth;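 optical density of the mix in the first replicate; 0 = DMSO median and -100 = no signal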
rRNA inh HTS RFP – further read-out of rRNA inh HTS, marked with its call; RFP signal change, %; measured here: RFP humanized mutant strains;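 first replicate; 0 = DMSO median and -100 = no signal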
* hit, by the source's call; & = joins results of further samples. Not all compounds are listed; count on the stated rates, not on these rows.

`COc1ccccc1CCc1nnc(CCC(=O)NCC[C@@H]2C[C@@H]3C=C[C@H]2C3)o1` gave Calb FLC -21, RanGTP-Impb inh 2.1, Beta apoptosis -5, T cruzi repl 11, MLL AF4-AF9 inh 2.6, rRNA inh HTS -46, Bfl-1 A1 inh 0.5, Vif A3G 2%, rRNA inh HTS OD600 -68 and rRNA inh HTS RFP 3.5.
Screening CCOC(=O)c1cc(-c2ccccc2)sc1NC(=O)CSc1nncs1 returned Calb FLC 3, RanGTP-Impb inh 0.2, Beta apoptosis -19, T cruzi repl 14 and Bfl-1 A1 inh -0.3.
Screening O=C(CNC(=O)c1ccc(Br)o1)NNC(=O)c1ccc(Cl)cc1 returned Beta apoptosis 3, MLL AF4-AF9 inh -1.4, rRNA inh HTS 4, Bfl-1 A1 inh 1.0, rRNA inh HTS OD600 2 and rRNA inh HTS RFP 0.2.
CCOC(=O)C(C)Oc1ccc2c(-c3cccc([N+](=O)[O-])c3)cc(=O)oc2c1 (centres undefined) was read as Calb FLC -3, RanGTP-Impb inh 1.4, Beta apoptosis 7, T cruzi repl -8, Bfl-1 A1 inh 0.5 and Vif A3G 19%.
For Cn1c(SCC(=O)OC2CCCCC2)nnc1-c1ccc2c(c1)OCO2 the results were Calb FLC -19, RanGTP-Impb inh 6.5, Beta apoptosis -2, T cruzi repl 2, Bfl-1 A1 inh 0.4 and Vif A3G -2%.
For Cc1cc(C)n(-c2ccc(C(=O)Nc3ccc(S(=O)(=O)N(C)C)cc3)cc2)n1 the results were Calb FLC -2, RanGTP-Impb inh 7.9, T cruzi repl 11, MLL AF4-AF9 inh -17, rRNA inh HTS -11, Bfl-1 A1 inh 0.3, Vif A3G -5%, rRNA inh HTS OD600 6 and rRNA inh HTS RFP -3.9.
For COc1ccc(-c2nn(-c3ccccc3)cc2C(=O)N2CCN(S(=O)(=O)c3ccccc3C#N)CC2)cc1 the results were Calb FLC 26, RanGTP-Impb inh 4.4, Beta apoptosis 6, T cruzi repl 22, MLL AF4-AF9 inh -0.6, rRNA inh HTS -5, Bfl-1 A1 inh 0.0, Vif A3G 1%, rRNA inh HTS OD600 -7 and rRNA inh HTS RFP 0.9.
Cc1cc(NC(=O)CCC(=O)N(c2ccccc2)C(C(=O)NC2CCCC2)c2ccncc2)no1 (centres undefined) was read as Calb FLC -1, RanGTP-Impb inh 6.0, Beta apoptosis -10, T cruzi repl -4, Bfl-1 A1 inh -0.4 and Vif A3G 1%.
`CS(=O)(=O)Nc1cc2c3c(c1)CCC(=O)N3CCC2` gave Calb FLC 9, RanGTP-Impb inh inconclusive, Beta apoptosis -2, T cruzi repl -21, MLL AF4-AF9 inh 0.3, rRNA inh HTS 0, Bfl-1 A1 inh 0.4, rRNA inh HTS OD600 2 and rRNA inh HTS RFP -3.2.
Screening Cc1ccc([N+](=O)[O-])c2cccnc12 returned Calb FLC -4, RanGTP-Impb inh 3.0, Beta apoptosis -4, T cruzi repl -7, Bfl-1 A1 inh 1.3 and Vif A3G 1%.
`Cc1cccc(C)c1OCC(=O)NNC(=O)CNC(=O)c1ccc(OC(F)F)cc1` gave Beta apoptosis 1, MLL AF4-AF9 inh -3.2, rRNA inh HTS 10, Bfl-1 A1 inh 0.0, Vif A3G 5%, rRNA inh HTS OD600 14 and rRNA inh HTS RFP 1.8.
For Cc1nn(C)cc1NC(=O)CCSc1nc(-c2ccco2)cc(C(F)(F)F)n1 the results were Calb FLC -3, RanGTP-Impb inh 5.1, Beta apoptosis 4, T cruzi repl 0, Bfl-1 A1 inh 0.1 and Vif A3G 3%.
For Cc1cccc(C)c1OCc1nnc2c3cnn(C)c3ncn12 the results were Calb FLC -4, RanGTP-Impb inh 4.2, Beta apoptosis -8, T cruzi repl -12, Bfl-1 A1 inh -0.2 and Vif A3G 3%.
Screening COc1ccc(CC(=O)N(C)Cc2cccc(F)c2)cc1S(=O)(=O)N1CCOCC1 returned Calb FLC 0, RanGTP-Impb inh -0.6, Beta apoptosis -2, T cruzi repl -7, MLL AF4-AF9 inh 3.7, rRNA inh HTS 2, Bfl-1 A1 inh 0.8, Vif A3G 2%, rRNA inh HTS OD600 6 and rRNA inh HTS RFP 0.4.
For COc1cccc(NC2SC(=O)N(c3ccccc3)C2=O)c1 (centres undefined) the results were Calb FLC -2, RanGTP-Impb inh 1.5, T cruzi repl -7, MLL AF4-AF9 inh -1.7, rRNA inh HTS 1, Bfl-1 A1 inh 0.3, Vif A3G 15%, rRNA inh HTS OD600 11 and rRNA inh HTS RFP 5.9.
`c1ccc2c(c1)CCN(Cc1nnnn1Cc1ccc3c(c1)OCO3)C2` gave Calb FLC -9, RanGTP-Impb inh 0.6, Beta apoptosis 2, T cruzi repl 20, Bfl-1 A1 inh 0.8 and Vif A3G 24%.
`O=C(CCCCCN1C(=O)c2ccccc2C1=O)Oc1ccc2c3c(c(=O)oc2c1)CCC3` gave Calb FLC 3, RanGTP-Impb inh 4.0, Beta apoptosis -1, T cruzi repl -1 and Bfl-1 A1 inh -0.5.
`O=C(C1CCN(S(=O)(=O)c2cccc3nsnc23)CC1)N1CC=C(c2ccccc2)CC1` gave Calb FLC 8, RanGTP-Impb inh -4.8, T cruzi repl -2, Bfl-1 A1 inh 0.0 and Vif A3G 3%.
`O=C(CCC(=O)NNC(=O)COc1ccc(Br)cc1)NCc1ccccc1` gave Calb FLC -4, RanGTP-Impb inh 1.3, T cruzi repl -21, MLL AF4-AF9 inh -0.2, rRNA inh HTS 5, Bfl-1 A1 inh 0.0, rRNA inh HTS OD600 5 and rRNA inh HTS RFP 1.7.
For CCOc1cccc(NC(=O)C2CCCN(S(=O)(=O)c3ccc(OC)cc3)C2)c1 (centres undefined) the results were Calb FLC -6, RanGTP-Impb inh 8.3, Beta apoptosis -5, T cruzi repl 17, Bfl-1 A1 inh 1.0 and Vif A3G 67%.
COc1ccc(O)c(C(=O)c2cnn(C(=O)c3cccc(N(C)C)c3)c2)c1 was read as Beta apoptosis -5, MLL AF4-AF9 inh -3.1, rRNA inh HTS 7, Bfl-1 A1 inh 0.8, Vif A3G 3%, rRNA inh HTS OD600 6 and rRNA inh HTS RFP 3.5.
`O=C(Nc1cccnc1)Nc1ccc2c(c1)OCO2` gave Calb FLC 1, RanGTP-Impb inh 0.2, Beta apoptosis 5, T cruzi repl -9, Bfl-1 A1 inh -3.6 and Vif A3G 4%.
For O=C(Nc1ccc2c(c1)CCC2)c1cc(S(=O)(=O)N2CCN(c3ccccc3)CC2)ccc1Cl the results were Calb FLC 2, RanGTP-Impb inh 5.0, Beta apoptosis -2, T cruzi repl 8, Bfl-1 A1 inh -0.3 and Vif A3G 0%.
For Nc1nonc1-c1nc2ccccc2n1CCC(=O)O the results were Calb FLC 6, RanGTP-Impb inh -0.8, Beta apoptosis 4, T cruzi repl 6, Bfl-1 A1 inh 0.4 and Vif A3G 0%.
`CCOc1ccc(-c2nc(CS(=O)(=O)CC(=O)NCc3ccc(F)cc3)c(C)o2)cc1` gave Calb FLC -4, RanGTP-Impb inh inconclusive, Beta apoptosis -2, T cruzi repl -2, MLL AF4-AF9 inh 4.3, rRNA inh HTS 4, Bfl-1 A1 inh -0.3, rRNA inh HTS OD600 5 and rRNA inh HTS RFP -0.5.
For O=C(Cn1c(=O)oc2ccccc21)NC(=O)NCc1ccccc1 the results were Calb FLC -2, RanGTP-Impb inh 1.6, Beta apoptosis -8, T cruzi repl 14, Bfl-1 A1 inh -0.3 and Vif A3G -2%.
Screening CCC(=O)N1c2ccc(S(=O)(=O)CCC(=O)N3CCn4c3nc3ccccc34)cc2CC1C (centres undefined) returned Calb FLC 81*, RanGTP-Impb inh -0.7, Beta apoptosis 3, T cruzi repl 13, Bfl-1 A1 inh 0.7 and Vif A3G 7%&1%.
COc1cc(C)ccc1OCCOCCOc1ccc(C)cc1[N+](=O)[O-] was read as Calb FLC 51, RanGTP-Impb inh -1.8, Beta apoptosis -2, T cruzi repl 6, Bfl-1 A1 inh -0.7 and Vif A3G 3%.
`CC#CCN1c2ccccc2[C@]23C[C@@H](C(=O)OC)N(C(=O)NC(C)(C)C)C2=NC(C(=O)OC)=C(C(=O)OC)[C@H]13` gave Calb FLC 9, RanGTP-Impb inh 1.3, Beta apoptosis 3, T cruzi repl 3, MLL AF4-AF9 inh 4.9, rRNA inh HTS 12, Bfl-1 A1 inh -0.9, rRNA inh HTS OD600 16 and rRNA inh HTS RFP -6.2.
O=[N+]([O-])/C=C\c1ccc(N2CCOCC2)cc1 was read as Calb FLC -1, RanGTP-Impb inh 6.4, Beta apoptosis -4, T cruzi repl 2, rRNA inh HTS -19*, Bfl-1 A1 inh 0.6, rRNA inh HTS OD600 1.8* and rRNA inh HTS RFP 0.6*.
`O=C(COC(=O)c1cc(S(=O)(=O)N2CCOCC2)ccc1F)NCCc1ccc(F)cc1` gave Beta apoptosis -5, MLL AF4-AF9 inh -0.5, rRNA inh HTS -1, Bfl-1 A1 inh 0.7, rRNA inh HTS OD600 -5 and rRNA inh HTS RFP 0.8.
Screening O=C(c1cc([N+](=O)[O-])cc([N+](=O)[O-])c1)N(Cc1nnc(-c2ccccc2Cl)o1)C1CC1 returned Calb FLC 15, RanGTP-Impb inh 2.2, Beta apoptosis 16, T cruzi repl 75*, MLL AF4-AF9 inh 6.3, rRNA inh HTS 11, Bfl-1 A1 inh 0.6, rRNA inh HTS OD600 6 and rRNA inh HTS RFP -5.6.
For CC1Oc2ccccc2C=C1C1/C(=C(/O)c2ccccc2)C(=O)C(=O)N1CCCN(C)C (centres undefined) the results were Calb FLC -2, RanGTP-Impb inh 8.4, Beta apoptosis -1, T cruzi repl -16, Bfl-1 A1 inh 0.4 and Vif A3G 0%.
`C#CCOCCOCCOCCNc1nc(N2CCN(C(=O)[C@H](CCC(=O)O)n3cc(CN)nn3)CC2)nc(N2CCN(C(=O)[C@H](CCCN=C(N)N)n3cc(C(N)[C@@H](C)CC)nn3)CC2)n1` (some centres undefined) gave Beta apoptosis -3, MLL AF4-AF9 inh 7.0, rRNA inh HTS 23, Bfl-1 A1 inh 0.1, Vif A3G 0%, rRNA inh HTS OD600 12 and rRNA inh HTS RFP 0.8.
`O=C1CN(C(=O)c2c(F)cccc2F)C(c2ccc(F)cc2)c2cc(Br)ccc2N1` (centres undefined) gave Calb FLC -5, RanGTP-Impb inh 1.0, Beta apoptosis 0, T cruzi repl 1, MLL AF4-AF9 inh 3.8, rRNA inh HTS -9, Bfl-1 A1 inh -1.1, Vif A3G -3%, rRNA inh HTS OD600 -15 and rRNA inh HTS RFP 6.4.
